PrP UTR inh = inhibition of PrP 5' UTR reporter expression | 340,000 tested, 0.35% active | cell-based PrP 5' UTR mRNA reporter, plate reader | inhibition, % (concentration not given with the values);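 active = every replicate at 50% or more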;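 also: 0 = median of the neutral control wells; tested in H4 reporter cells; numbers are from one replicate; inactives centre near -14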
RN4220 kill = growth inhibition of S. aureus RN4220, primary screen, OD600; 16 h; inhibition, % (test concentration not listed); 330,000 tested, 0.33% active; AID 1259311, 2017;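 active = z-score of -3 or lower and OD600 up to 0.18 on both plates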;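 also: plate controls were untreated cells for no effect and reference antibiotic for full effect; stock transfer was 100 nL into about 80 µL; one replicate is shown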
BJeLR lethal = MLPCN primary cell-based screen for lethality selective to Ras in HRASV12 cells. BJeLR (HRASV12) viability, CellTiter-Glo ATP luminescence, 48 h; reference of the scale not given here. 300,000 tested, 0.17% active. inhibition, % (test concentration not listed);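 active = replicate mean above 50%; inconclusive = above 50% but judged a plate artefact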;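 also: 50 nL library stock added to about 25 µL; numbers are from one replicate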
Mtb hypoxia rep = PubChem AID 1159583. fluorescence inhibition, % (test concentration not listed). 300,000 tested, 0.1% active. M. tuberculosis hypoxia-regulated fluorescent reporter, fluorescence;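 active = 35 to 45% if threefold the growth effect, above 45% if 1.5-fold the growth effect; inactive = the rest, general growth blockers included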;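 also: wells of about 50 µL received 100 nL stock; 0% = vehicle wells and 100% = reference inhibitor wells; whole bacteria with a GFP reporter of the hypoxia response; strong numbers were not always called active; many hits fall short of the cut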
ugtP null kill = growth inhibition of ugtP-null S. aureus, primary screen, RN4220 ugtP deletion, OD600; 330,000 tested, 0.54% active; 16 h; some inactives read as strong as hits; growth inhibition, % (test concentration not listed);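 active = z-score under -3 and OD600 up to 0.15 on both plates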;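 also: plate controls were untreated wells for no effect and antibiotic for full effect; wells of about 80 µL received 100 nL stock; the first replicate is given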
Autofluor counter = flagged as autofluorescent in microsphere protease counterscreen; compound autofluorescence counterscreen, microsphere flow cytometry; stronger effect = higher value; fluorescence intensity (no concentration beside the values); 360,000 tested, 3.1% active;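 active = at least 3 SD above the mean of all compounds, about 16000 in these data; inconclusive = too few beads counted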;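 also: 100 nL of 1 mM stock went into each well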
Mtb hypoxia rep growth = also measured in Mtb hypoxia rep; calls as there; growth inhibition, %; measured here: M. tuberculosis growth (absorbance);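 0% = vehicle and 100% = reference antibiotic; read after six days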
Active calls of the source: *; ? = inconclusive; · = not tested or not shown.

SMILES,Mtb hypoxia rep,ugtP null kill,Mtb hypoxia rep growth,Autofluor counter,PrP UTR inh,BJeLR lethal,RN4220 kill
Cn1c(=O)c2c(SCC(=O)Nc3ccccc3F)nc(C3CC3)nc2n(C)c1=O,13.5,0.2,6.8,6080,-2.4,-3.1,-2.0
COc1ccc(C2CC(c3cccs3)=NN2C(=O)CSc2nc3ccccc3s2)cc1 (configuration not stated),1.3,-17.3,1.9,2523,-17.8,11.1,4.0
COc1cccc(N(CC(=O)NCCN2CCOCC2)S(=O)(=O)c2ccccc2)c1,2.2,4.5,-3.4,?,-22.8,3.3,8.6
COc1cccc(OC)c1C(=O)OCC(=O)N(c1ccccc1)C1CCCCC1,16.8,3.6,25.5,2752,-10.8,·,6.4
COc1ccc(/C=N/NC(=O)c2nnn(-c3nonc3N)c2-c2cccs2)c(OC)c1,·,·,·,5238,-35.6,-9.5,·
O=C(NCc1nc(-c2ccccc2)no1)c1ccc(Br)o1,14.6,6.9,3.6,5233,-43.9,0.9,0.0
COc1ccccc1C(=O)NC1CCSc2ccccc21 (configuration not stated),-3.7,1.4,0.0,6568,-8.2,0.1,12.7
CC(=O)Nc1ccc(NC(=O)C(C)OC(=O)c2c(NC(C)=O)sc(C)c2C)cc1 (configuration not stated),-4.7,-1.0,-6.9,3760,-13.8,·,-3.8
Cc1ccc(SCCNC(=S)Nc2cc(C)ccc2C)cc1,·,-2.5,·,2812,-10.4,-17.5,1.5
CN1CCN(c2cc(=O)n(Cc3ccc(F)cc3)c(=O)[nH]2)CC1,-0.8,-4.3,-5.6,4827,-1.1,15.9,-14.2
COc1c(C)cc(C(=O)C2CCCN(Cc3ccc(Oc4ncccn4)cc3)C2)cc1C (configuration not stated),-0.5,19.2,15.4,3662,-12.8,5.4,4.9
O=C(CNS(=O)(=O)c1ccc(Br)s1)N1CCN(c2ccc(F)cc2)CC1,-8.7,6.5,-4.2,3514,-9.2,1.3,0.0
Cc1ccc2nc(-c3cccc(S(=O)(=O)N4CC(C)OC(C)C4)c3)cn2c1 (configuration not stated),-1.5,-19.4,-0.4,5028,-7.7,-1.5,-4.1
CC1CC(C)CN(C(=O)c2cc3c(=O)n4ccccc4nc3s2)C1 (configuration not stated),16.4,-6.7,0.2,5897,-15.7,-10.2,4.8
CCc1ccccc1NC(=O)CCNS(=O)(=O)c1cc(Br)cnc1N,-0.5,-1.1,8.5,5374,-10.5,4.3,2.7

Structural class: those above with bromine
SMILES,Mtb hypoxia rep,ugtP null kill,Mtb hypoxia rep growth,Autofluor counter,PrP UTR inh,BJeLR lethal,RN4220 kill
O=C(NCc1nc(-c2ccccc2)no1)c1ccc(Br)o1,14.6,6.9,3.6,5233,-43.9,0.9,0.0
O=C(CNS(=O)(=O)c1ccc(Br)s1)N1CCN(c2ccc(F)cc2)CC1,-8.7,6.5,-4.2,3514,-9.2,1.3,0.0
CCc1ccccc1NC(=O)CCNS(=O)(=O)c1cc(Br)cnc1N,-0.5,-1.1,8.5,5374,-10.5,4.3,2.7

Following part
SMILES,Mtb hypoxia rep,ugtP null kill,Mtb hypoxia rep growth,Autofluor counter,PrP UTR inh,BJeLR lethal,RN4220 kill
CCc1ccc(OCC(=O)Nc2ccc(S(=O)(=O)Nc3ccccn3)cc2)cc1,5.1,-1.0,-1.3,5941,-0.1,8.0,1.3
CCN1/C(=C(\O)c2ccccc2)C(=O)c2ccccc2S1(=O)=O,·,18.5,·,4225,-2.5,11.0,31.7
COc1ccc(S(=O)(=O)CCC(=O)Nc2cc(C)ccc2OC)cc1,13.3,8.7,-0.9,2239,-14.1,-8.2,4.8
CCOc1ccc(-c2cn(-c3ccc(OC)cc3)c(SC)n2)cc1,·,·,·,6898,-89.5,-1.4,·
Cc1nc2c([nH]c3ccccc32)c(=O)n1N,0.8,-2.1,5.4,4468,-38.6,-12.6,6.9
Cc1ccc(-c2nnn(CC(=O)N(CC(=O)NC(C)C)c3cnc4ccccc4c3)n2)o1,4.3,13.0,6.5,7183,-22.3,3.1,6.1
Cc1cccc(C)c1NC(=S)N1CCOCC1,-3.6,3.4,-2.2,4872,-12.4,-5.6,1.6
CCOC(=O)c1c(C)[nH]c(C(=O)NN=Cc2ccc(OC)c(OC)c2)c1C,10.3,4.1,12.3,·,·,·,-0.4
COCc1cc(C)nc(SCC(=O)NCC2CCCO2)c1C#N (configuration not stated),6.1,16.3,13.1,4666,-38.9,2.5,1.8
Cc1ccccc1-n1c(N)cc(=O)[nH]c1=S,-0.8,10.7,7.6,12802,-18.4,1.1,4.8
COc1ccccc1CNC(=O)C(CC(C)C)NS(=O)(=O)c1ccc2c(c1)oc(=O)n2C (configuration not stated),9.4,5.0,10.4,6010,-4.0,-7.0,3.7
O=C(CCN1C(=O)c2ccccc2C1=O)NC(=S)Nc1ccccc1Cl,7.4,7.1,-0.9,2681,-30.7,4.5,-2.9
COc1ccc(CC2SC(N)=NC2=O)cc1 (configuration not stated),14.7,5.8,-4.4,3623,-13.8,-8.3,5.4
CCOC(=O)c1cnc2cc(F)c(F)cc2c1N1CCOCC1,13.3,6.7,3.6,4123,-4.7,-3.9,3.6
CCOC(=O)NN1C(=O)c2ccccc2NC1c1cccc(O)c1 (configuration not stated),10.7,3.6,5.4,2642,-16.6,7.7,8.2
O=C(CCn1[nH]c(=O)c2ccccc2c1=O)N1CCOCC1,0.5,-5.6,11.9,3765,-11.8,-16.8,-0.5
CCOC(=O)N1CCC(N(C(=O)Nc2cccc(OC)c2)C(C)CC)CC1 (configuration not stated),7.0,17.8,-3.8,5248,-3.9,1.3,8.2
Cc1nn(Cc2cccc(Oc3ccccc3)c2)c(C)c1NC(=O)NC12CC3CC(CC(C3)C1)C2,2.0,-7.9,4.7,2475,-16.0,1.2,2.5
CC(C)(CNC(=O)Cc1ccc(Cl)cc1Cl)N1CCOCC1,·,·,·,4185,-33.6,-0.9,·
CNc1cc(N2CCN(S(=O)(=O)N(C)C)CC2)ccc1[N+](=O)[O-],16.6,3.7,6.5,4897,-7.0,-0.3,6.1
COc1ccc(-c2cc(-c3ccc(Cl)cc3)c(C#N)c(SCC(=O)O)n2)cc1,-6.4,19.2,5.0,3997,-19.8,-5.3,12.2
CCOC(=O)c1c(-c2ccc(-c3ccccc3)cc2)csc1NC(=O)CNCCN(C)C,22.2,21.7,23.1,3338,8.0,14.0,40.7
O=C(CCc1cn2ccccc2n1)NC1CCCc2c1cnn2-c1ccccc1F (configuration not stated),4.3,11.3,4.3,5426,-4.1,12.7,3.8
Cc1nc2ccccc2c2oc(C(=O)N3CCc4ccccc4C3)cc12,·,6.2,·,4764,6.6,-2.7,5.7
CCN(C(=O)c1cc2ccccc2oc1=O)c1ccccc1,18.2,-4.9,6.1,?,-87.5,10.6,-11.6
NC(=O)C1CC2(CC(c3cccc(NC(=O)CC(c4ccccc4)c4ccccc4)c3)=NO2)CN1C(=O)C1CCC(=O)N1 (configuration not stated),-9.5,-2.5,6.7,·,·,·,1.1
O=C(Nc1ccc(F)c(Cl)c1)C1CCCCC1,18.9,-10.5,11.2,2941,-23.0,·,1.3
Cc1nc2ccccc2cc1C(=O)N(C)Cc1ccccc1,6.4,8.0,7.6,4109,-21.0,7.8,-0.3
O=C1CN(S(=O)(=O)c2cc(Br)ccc2Br)CCN1,1.4,0.9,1.1,6159,-21.8,·,-0.3
CC1(c2ccccc2)NC(=O)N(CC(=O)Nc2cc(S(=O)(=O)N3CCOCC3)ccc2Cl)C1=O (configuration not stated),3.4,-2.7,2.0,3989,-15.8,-4.0,-4.4
Cc1cc(C)n(C(C)CC(=O)N2CCc3ccccc32)n1 (configuration not stated),14.0,4.7,2.9,5960,-4.9,13.9,4.1
O=S(=O)(Nc1nc2c(s1)CCCC2)c1ccc(F)cc1,-2.8,-4.5,2.2,10725,-18.2,-1.7,5.6
O=C(Nc1ccccc1)N1N=CCC1c1ccccc1 (configuration not stated),-0.7,2.9,-9.9,5125,-15.8,2.5,3.8
CCOC(=O)C1CCCN(C(=O)c2ccc3nc(-c4cccc(OC)c4)oc3c2)C1 (configuration not stated),3.1,0.5,-14.5,4366,-43.0,15.7,3.6
CCc1ccccc1N(CC(=O)NC1CCCCC1)C(=O)CCC(=O)Nc1ccccn1,-5.9,-6.4,2.1,5434,-13.7,0.5,6.1
OCC(CBr)(CBr)CBr,13.8,7.2,9.8,4186,-4.5,·,7.1
O=C(COc1cccc(Br)c1)N/N=C/C(=O)c1ccccc1,·,·,·,4190,-14.4,-2.1,·
CCCn1c(N)c(C(=O)CN2CCN(S(=O)(=O)c3cccc(Cl)c3)CC2)c(=O)[nH]c1=O,-7.0,2.8,8.6,4235,-13.0,·,2.6
Cc1ccc(C(C(=O)NCC2CCCO2)N(Cc2ccccc2)C(=O)c2ccc(-c3ccccc3)[nH]2)o1 (configuration not stated),-6.4,-22.3,6.2,2240,-24.2,11.9,-9.1
O=C(COC(=O)/C=C/c1ccc(Cl)cc1)Nc1cccc(S(=O)(=O)NC2=NCCCCC2)c1,21.9,19.8,2.4,4060,-7.7,·,2.2
COc1cccc(O)c1CN1CCCC(C(=O)c2sccc2C)C1 (configuration not stated),13.2,2.5,6.8,4557,-4.1,18.6,4.2
C=CCOc1ccccc1C=c1sc2nc(=O)c(C)nn2c1=O,1.6,-10.9,5.1,·,·,·,-3.5
N#Cc1ccccc1COC(=O)c1cc(=O)c2ccccc2o1,6.7,2.8,5.1,3282,-18.2,0.1,-2.4
NC(=O)CC(NC(=O)Cc1cccc2ccccc12)c1ccc(NCCOc2ccccc2)c([N+](=O)[O-])c1 (configuration not stated),·,·,·,2998,3.0,2.5,·
CCc1ccc(-c2cnc3ccccc3n2)cc1NC(=O)CNC(=O)c1ccccc1,0.4,-3.4,2.0,5150,-58.4,-2.3,4.1
COc1cccc(C(C)NC(=O)C2CCCO2)c1 (configuration not stated),-2.7,-2.8,-2.5,3901,-18.7,4.4,-1.5
CCCCN(C(=O)c1ccc([N+](=O)[O-])o1)c1c(N)n(CC(C)C)c(=O)[nH]c1=O,·,·,·,5050,-21.6,-5.5,·
C/C(N)=C(/C#N)C(=O)COC(=O)CSc1ccccc1,7.4,0.9,-5.3,3205,-25.6,4.2,-0.3
O=C(CCN1C(=O)[C@H]2CC=CC[C@H]2C1=O)NCc1nc(-c2ccc(Cl)cc2)no1,7.3,5.3,1.0,5243,-14.7,1.5,1.4
NCCCCCC(=O)NN=Cc1coc2ccccc2c1=O,15.3,3.6,6.0,·,·,·,4.9
Cc1cccnc1NC(=O)COc1ccc2c(c1)CCC2,4.6,9.2,1.5,4345,-64.8,-13.3,2.5
O=C(CNS(=O)(=O)c1ccc(Cl)cc1)N/N=C/c1ccco1,·,·,·,4473,8.2,2.3,·

Molecules above with a furan ring, fused or not, in the order listed:
SMILES,Mtb hypoxia rep,ugtP null kill,Mtb hypoxia rep growth,Autofluor counter,PrP UTR inh,BJeLR lethal,RN4220 kill
O=C(NCc1nc(-c2ccccc2)no1)c1ccc(Br)o1,14.6,6.9,3.6,5233,-43.9,0.9,0.0
Cc1ccc(-c2nnn(CC(=O)N(CC(=O)NC(C)C)c3cnc4ccccc4c3)n2)o1,4.3,13.0,6.5,7183,-22.3,3.1,6.1
Cc1nc2ccccc2c2oc(C(=O)N3CCc4ccccc4C3)cc12,·,6.2,·,4764,6.6,-2.7,5.7
Cc1ccc(C(C(=O)NCC2CCCO2)N(Cc2ccccc2)C(=O)c2ccc(-c3ccccc3)[nH]2)o1 (configuration not stated),-6.4,-22.3,6.2,2240,-24.2,11.9,-9.1
CCCCN(C(=O)c1ccc([N+](=O)[O-])o1)c1c(N)n(CC(C)C)c(=O)[nH]c1=O,·,·,·,5050,-21.6,-5.5,·
O=C(CNS(=O)(=O)c1ccc(Cl)cc1)N/N=C/c1ccco1,·,·,·,4473,8.2,2.3,·
